Assay outcomes deposited in PubChem BioAssay by Broad Institute.
FGF22 binding = shifts melting point of recombinant human FGF22; Q9HCT0; recombinant FGF22 thermal shift, SYPRO orange fluorescence; percent of sucrose octasulfate shift, DMSO zero; calls only at 9.99 µM; 340,000 tested, 1.5% active;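 active = melting point raised past a set limit in the mean and every replicate; three in four hits are not shown here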
Target sequence (Q9HCT0 whole entry, looked up): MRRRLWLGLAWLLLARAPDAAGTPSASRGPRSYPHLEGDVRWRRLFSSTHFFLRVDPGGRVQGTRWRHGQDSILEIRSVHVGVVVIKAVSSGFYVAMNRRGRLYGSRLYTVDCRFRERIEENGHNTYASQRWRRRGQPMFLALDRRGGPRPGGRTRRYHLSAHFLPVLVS
Ecoli rRNA inh = selective bacterial rRNA inhibition in E. coli; E. coli WT GFP vs humanized-ribosome RFP mutants, fluorescence, 24 h; active compounds read low; DMSO median 0, no signal -100; GFP signal change (wild-type ribosome), % (no concentration beside the values); 350,000 tested, 1.6% active; AID 720706;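 active = significant combined selectivity score with lowered wild-type GFP, culture density cut under 30%, mutant RFP and density less affected; inactive = any of these conditions unmet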; note: one replicate is shown; some compounds called inactive have numbers as strong as hits
Ecoli rRNA inh OD600 = second read-out of Ecoli rRNA inh, no call of its own (marks repeat the call); OD600 change, %; measured here: OD600 growth;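 optical density of the mix in the first replicate; 0 = DMSO median and -100 = no signal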
Ecoli rRNA inh RFP = second read-out of Ecoli rRNA inh, no call of its own (marks repeat the call); RFP signal change, %; measured here: RFP humanized mutant strains;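 first replicate; 0 = DMSO median and -100 = no signal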
Active calls of the source: *; i = inactive; · = no result given. Only part of the results is shown (hit frequency here may not be typical).

Value order – FGF22 binding	Ecoli rRNA inh	Ecoli rRNA inh OD600	Ecoli rRNA inh RFP
C[C@@H]1CN([C@@H](C)CO)C(=O)c2cccc(NC(=O)c3cnccn3)c2O[C@@H]1CN(C)Cc1ccc(C(=O)O)cc1
 : i	2	3	-1.2
C[C@@H]1CCCCO[C@H](CN(C)S(C)(=O)=O)[C@@H](C)CN([C@@H](C)CO)C(=O)c2cc(NC(=O)Nc3ccc4c(c3)OCO4)ccc2O1
 : i	2	3	0.9
C[C@@H]1CN([C@H](C)CO)S(=O)(=O)c2ccc(C#Cc3ccncc3)cc2O[C@H]1CN(C)C(=O)C1CCCCC1
 : i	-22	-31	-3.9
C[C@@H]1CN([C@H](C)CO)C(=O)c2cc(NC(=O)C3CCCCC3)ccc2O[C@@H](C)CCCCO[C@H]1CN(C)C(=O)Nc1ccc(C(F)(F)F)cc1
 : i	0	1	-0.5
CNC(=O)C[C@H]1CC[C@@H]2[C@@H](COc3ccc(NC(=O)Nc4ccc(F)c(F)c4)cc3C(=O)N2C)O1
 : i	-20*	-11*	8.0*
O=C(C[C@@H]1CC[C@H]2[C@@H](COC[C@@H](O)CN2C(=O)c2ccccc2F)O1)NCc1ccc(F)cc1
 : i	-1	-7	-2.7
COc1ccc(-c2ccc3c(n2)CCCN3S(=O)(=O)c2ccccc2)cc1
 : ·	-7	-6	5.7
C[C@@H]1CN([C@H](C)CO)S(=O)(=O)c2ccc(C#CCN(C)C)cc2O[C@@H]1CN(C)C(=O)CC1CC1
 : i	-2	-5	-3.6
CCCC(=O)N1C[C@H]2[C@@H](c3ccccc31)[C@@H](CO)N2C(=O)Nc1ccccc1
 : i	4	-16	-1.6
C[C@@H]1CN([C@@H](C)CO)S(=O)(=O)c2ccc(C#Cc3ccccn3)cc2O[C@H]1CN(C)Cc1ccc(F)cc1
 : i	-9	1	2.9
CNC(=O)C[C@@H]1CC[C@H]2[C@@H](COc3ccc(NC(=O)c4cccs4)cc3C(=O)N2C)O1
 : i	5	4	-3.3
C[C@H](CO)N1C[C@H](C)[C@@H](CN(C)Cc2ccccc2)OCCCC[C@H](C)Oc2ccc(NC(=O)C3CCCCC3)cc2C1=O
 : i	-3	-10	-1.3
CCNC(=O)C[C@H]1CC[C@H](NC(=O)C2CCOCC2)[C@H](CO)O1
 : i	2	7	0.4
COc1ccc(S(=O)(=O)N(C)C[C@@H]2Oc3ccc(NS(=O)(=O)c4ccccc4)cc3C(=O)N([C@@H](C)CO)C[C@H]2C)cc1
 : i	-7	-4	-0.2
C[C@H](NC(=O)C[C@H]1CC[C@@H]2[C@H](COC[C@H](O)CN2C(=O)Nc2cc(Cl)cc(Cl)c2)O1)c1ccccc1
 : i	-37	-61	-1.2
CN(C)Cc1cn(CC[C@H]2CC[C@H](N)[C@@H](CO)O2)nn1
 : i	2	4	-1.9
COc1ccc(NC(=O)Nc2cccc3c2O[C@H](CN(C)Cc2ccccc2)[C@@H](C)CN([C@H](C)CO)C3=O)cc1
 : i	-2	-4	-0.7
CC(C)NC(=O)N(C)C[C@H]1Oc2ncc(-c3cncnc3)cc2C(=O)N([C@@H](C)CO)C[C@H]1C
 : i	6	9	-2.7
CC(C)NC(=O)Nc1ccc2c(c1)C(=O)N([C@H](C)CO)C[C@@H](C)[C@@H](CN(C)S(=O)(=O)c1cccs1)OCCCC[C@@H](C)O2
 : i	-1	-2	1.4
COCC1CN(CCc2ccc(F)cc2)S(=O)(=O)c2c(OCCN3C(=O)[C@@H]4[C@H](C3=O)[C@@H]3C=C[C@H]4C3)cccc2O1 (stereo partly drawn)
 : i	-2	-11	1.8
COc1ccc(CN(C)C[C@@H]2OCCCC[C@@H](C)Oc3ccc(NC(=O)Nc4ccccc4)cc3C(=O)N([C@@H](C)CO)C[C@@H]2C)cc1
 : i	-1	-10	10
COc1ccc(-c2ccc3c(c2)O[C@@H](CN(C)CC2CCOCC2)[C@@H](C)CN([C@H](C)CO)S3(=O)=O)cc1
 : i	-3	-5	-2.2
CC(C)NC(=O)N(C)C[C@H]1OCCCC[C@@H](C)Oc2ccc(NS(=O)(=O)c3ccccc3)cc2C(=O)N([C@@H](C)CO)C[C@H]1C
 : i	-5	-3	-1.2
C[C@@H]1CN([C@@H](C)CO)C(=O)c2c(c3ccccc3n2C)-c2ccccc2CO[C@@H]1CN(C)S(=O)(=O)c1ccccc1F
 : i	1	3	-0.4
COc1ccc2c3c(n(C)c2c1)[C@H](CO)N(C(=O)CC1CC1)CC31CCN(Cc2ccncc2)CC1
 : i	1	8	1.8
C[C@@H]1CN([C@@H](C)CO)C(=O)Cc2cc(NC(=O)NC3CCCCC3)ccc2O[C@@H]1CN(C)C(=O)Nc1cccc2ccccc12
 : i	0	0	2.4
C[C@H]1CN([C@@H](C)CO)C(=O)c2cc(NC(=O)c3ccncc3)ccc2O[C@H]1CN(C)C(=O)Nc1ccccc1
 : i	2	3	-1.1
CNC[C@H]1Oc2cc(-c3ccc(OC)cc3)ccc2S(=O)(=O)N([C@H](C)CO)C[C@@H]1C
 : i	1	1	-0.8
Cc1ccc(S(=O)(=O)NCC[C@H]2CC[C@H](NC(=O)CC3CC3)[C@H](CO)O2)cc1
 : i	-4	7	1.8
C[C@@H]1CN([C@@H](C)CO)C(=O)c2cccc(NC(=O)NC3CCCCC3)c2O[C@@H]1CN(C)S(=O)(=O)c1ccc(F)cc1
 : i	-4	-6	1.5
COc1ccc(S(=O)(=O)Nc2ccc3c(c2)C(=O)N([C@@H](C)CO)C[C@@H](C)[C@H](CN(C)C(=O)Nc2ccc4c(c2)OCO4)OCCCC[C@@H](C)O3)cc1
 : i	1	-4	-3.7
Cc1ccc(S(=O)(=O)N(C)C[C@H]2Oc3ccc(NC(=O)CCN4CCOCC4)cc3CC(=O)N([C@H](C)CO)C[C@H]2C)cc1
 : i	3	6	-1.9
C[C@H](CO)N1C[C@H](C)[C@@H](CN(C)C(=O)Nc2ccc(F)cc2)Oc2cc(-c3ccncc3)ccc2S1(=O)=O
 : i	-6	-10	-1.3
C[C@H](O)C#Cc1ccc([C@H]2[C@@H](CO)N3CCCCN(CC4CC4)C[C@H]23)cc1
 : i	0	-6	7.3
COCC(=O)N(C)C[C@@H]1Oc2cc(-c3cccc(F)c3)ccc2S(=O)(=O)N([C@H](C)CO)C[C@H]1C
 : i	-7	-10	-3.4
COc1ccc(S(=O)(=O)Nc2ccc3c(c2)CC(=O)N([C@H](C)CO)C[C@H](C)[C@H](CN(C)Cc2ccc(-c4ccccc4)cc2)O3)cc1
 : i	3	16	0.3
CO[C@@H](CN(C)S(=O)(=O)c1ccc(Cl)cc1)[C@H](C)CN([C@@H](C)CO)S(=O)(=O)c1cccc(Cl)c1
 : i	5	-10	0.4
O=C(C[C@H]1C=C[C@H](NS(=O)(=O)c2ccc(F)cc2)[C@@H](CO)O1)NCc1ccc(Cl)c(Cl)c1
 : i	-13	-25	1.1
C[C@@H]1CN([C@@H](C)CO)C(=O)Cc2cc(NC(=O)c3ccncc3)ccc2O[C@H]1CN(C)S(=O)(=O)c1ccccc1
 : i	-2	-2	0.0
C[C@H]1CN([C@@H](C)CO)C(=O)Cc2cc(NS(=O)(=O)c3ccccc3)ccc2O[C@H]1CN(C)Cc1ccc(C(=O)Nc2ccccc2N)cc1
 : i	1	-1	1.4
CC(C)C#Cc1ccc2c(c1)O[C@H](CN(C)Cc1ccccn1)[C@H](C)CN([C@@H](C)CO)S2(=O)=O
 : i	-9	-23	16
COc1ccc(CN(C)C[C@H]2OCCCC[C@H](C)Oc3ccc(NC(=O)Nc4ccc5c(c4)OCO5)cc3C(=O)N([C@H](C)CO)C[C@@H]2C)cc1
 : i	7	-9	4.7
COc1ccccc1C(=O)N1CCN(C(=O)[C@@H](Cc2ccccc2)NC(=O)[C@H]2O[C@@H](n3cnc(C(N)=O)n3)[C@H](O)[C@@H]2O)CC1
 : i	20	17	0.7
C[C@H](CO)N1C[C@H](C)[C@@H](CN(C)C(=O)c2ccccn2)Oc2cc(C#CC3CC3)ccc2S1(=O)=O
 : i	-2	-3	2.0
C[C@@H]1CN([C@@H](C)CO)C(=O)c2cc(-c3ccccc3)cnc2O[C@@H]1CN(C)C(=O)c1cccnc1
 : i	1	2	2.1
Cc1nn(C)cc1NC(=O)C[C@@H]1CC[C@@H]2[C@@H](COc3ccc(NC(=O)NC(C)C)cc3C(=O)N2C)O1
 : i	3	8	-1.0
COc1ccc(-c2ccccc2[C@@H]2[C@H](C#N)N(C(=O)C3CC3)[C@H]2CO)cc1
 : i	-5	10	-3.9
O=C(Nc1ccc(F)cc1)N1C[C@@H]2[C@H](c3ccccc31)[C@H](CO)N2C(=O)Cc1ccncc1
 : i	1	-8	0.2
C[C@@H]1CN([C@H](C)CO)C(=O)Cc2cc(NC(=O)Cc3cn(C)c4ccccc34)ccc2O[C@@H]1CN(C)Cc1ccc(-c2ccccc2)cc1
 : i	6	11	-0.3
COc1ccc(S(=O)(=O)N(C)C[C@@H]2OCCCC[C@H](C)Oc3ccc(NC(=O)C4CCCCC4)cc3C(=O)N([C@H](C)CO)C[C@@H]2C)cc1
 : i	2	5	-3.9
C[C@@H](O)C#Cc1ccc([C@@H]2[C@H]3CN(C(=O)c4ccc(F)cc4)CCCCN3[C@H]2CO)cc1
 : i	2	-3	-1.1
C=CCN1CC(COCCCC)Oc2ccc(Cl)cc2S1(=O)=O (stereo not drawn)
 : i	-28	-25	-1.6
C[C@H]1CN([C@@H](C)CO)C(=O)c2cccc(NC(=O)Nc3ccccc3)c2O[C@@H]1CN(C)CC1CCCCC1
 : i	-4	-10	-1.4
Cc1noc(C)c1NC(=O)Nc1ccc2c(c1)CC(=O)N([C@@H](C)CO)C[C@H](C)[C@H](CN(C)S(=O)(=O)c1c(C)noc1C)O2
 : i	3	10	1.0
C[C@H]1CN([C@@H](C)CO)C(=O)c2cccc(NC(=O)C3CCOCC3)c2O[C@@H]1CN(C)S(=O)(=O)c1ccc(F)cc1
 : i	2	13	0.3
O=C(C[C@H]1C[C@H]2c3cc(NS(=O)(=O)c4ccc(F)cc4)ccc3O[C@H]2[C@H](CO)O1)NCCc1ccccc1
 : i	-12	-30	26
O=C(C[C@@H]1CC[C@H]2[C@@H](COC[C@@H](O)CN2CC2CC2)O1)NCC1CC1
 : i	-2	10	2.8
Cc1ccc(N(C)c2nc(N)nc(N)c2N=O)cc1
 : i	94	11	5.4
C[C@@H]1CN([C@H](C)CO)C(=O)c2cccc(NS(C)(=O)=O)c2O[C@H]1CN(C)S(=O)(=O)c1ccccc1
 : i	-1	8	-1.4
COc1ccc(S(=O)(=O)N(C)C[C@H]2Oc3ccc(NS(=O)(=O)c4c(C)noc4C)cc3C(=O)N([C@@H](C)CO)C[C@H]2C)cc1
 : i	-5	-5	0.6

Going on with the list.
Value order – FGF22 binding	Ecoli rRNA inh	Ecoli rRNA inh OD600	Ecoli rRNA inh RFP
COc1ccc(S(=O)(=O)N(C)C[C@@H]2OCc3ccccc3-c3ccccc3C(=O)N([C@H](C)CO)C[C@@H]2C)cc1
 : i	-4	-11	3.7
CO[C@@H]1CN(C)C(=O)c2ccc(NS(C)(=O)=O)cc2OC[C@@H](C)N(C(=O)C2CCC2)C[C@H]1C
 : i	4	5	-0.8
Cc1noc(C)c1S(=O)(=O)Nc1ccc2c(c1)C(=O)N([C@H](C)CO)C[C@@H](C)[C@H](CN(C)CC1CCCCC1)OCCCC[C@@H](C)O2
 : i	0	-4	1.6
N#C[C@H]1[C@H](c2ccc(-c3cccc(F)c3)cc2)[C@H](CO)N1C(=O)CN1CCOCC1
 : i	0	10	-1.4

Ordered by the number under Ecoli rRNA inh OD600 (rising): some entries from above.
Value order – FGF22 binding	Ecoli rRNA inh	Ecoli rRNA inh OD600	Ecoli rRNA inh RFP
CCCC(=O)N1C[C@H]2[C@@H](c3ccccc31)[C@@H](CO)N2C(=O)Nc1ccccc1
 : i	4	-16	-1.6
C[C@@H]1CN([C@@H](C)CO)C(=O)c2cccc(NC(=O)NC3CCCCC3)c2O[C@@H]1CN(C)S(=O)(=O)c1ccc(F)cc1
 : i	-4	-6	1.5
CN(C)Cc1cn(CC[C@H]2CC[C@H](N)[C@@H](CO)O2)nn1
 : i	2	4	-1.9
Cc1nn(C)cc1NC(=O)C[C@@H]1CC[C@@H]2[C@@H](COc3ccc(NC(=O)NC(C)C)cc3C(=O)N2C)O1
 : i	3	8	-1.0
C[C@H]1CN([C@@H](C)CO)C(=O)c2cccc(NC(=O)C3CCOCC3)c2O[C@@H]1CN(C)S(=O)(=O)c1ccc(F)cc1
 : i	2	13	0.3
COc1ccccc1C(=O)N1CCN(C(=O)[C@@H](Cc2ccccc2)NC(=O)[C@H]2O[C@@H](n3cnc(C(N)=O)n3)[C@H](O)[C@@H]2O)CC1
 : i	20	17	0.7
